Screens from PubChem BioAssay.
YB-1 expr inh = YB-1 expression inhibition | U2OS, qRT-PCR YB-1 vs CDIP delta delta Cp, 16 h; active compounds read high; zero = DMSO, each unit about twofold | actives 0.37% (n = 30,000) | delta delta Cp (YB-1 minus CDIP) (concentration not given with the values);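 active = delta delta Cp rounded down to an integer at or above 3, about 3 SD of DMSO wells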;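 note: higher means less YB-1 transcript or more CDIP transcript relative to DMSO; stock transfer was 100 nL into about 100 µL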
Shh pathway inh = Sonic Hedgehog pathway inhibition; actives 2.1% (n = 22,000); inhibition, % (no concentration beside the values); Shh-LIGHT2 Gli-luciferase reporter, 30 h;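 active = replicate mean of 65% or more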;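 note: pathway switched on by Shh-conditioned medium diluted 1 in 25 in low serum; 100 nL library stock added to about 40 µL; 0% = median of neutral wells and 100% = positive control level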
MITF inh = blocks MITF activity; actives 0.28% (n = 37,000); inhibition, % (no concentration beside the values); TRPM1 promoter luciferase, luminescence, 24 h; AID 2240;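 active = most replicates at 85% or more, or half of them and the mean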;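 note: human melanocyte line stably carrying TRPM1 promoter luciferase reporter; 0% = vehicle wells and 100% = a positive control; the first replicate is given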
PD-1 reversal = reversal of PD-1 mediated T-cell inhibition; primary human CD4 T cells, PD-L1 beads, CellTiter-Glo 96 h; activation, % (test concentration not listed); 29,000 tested, under 10 active; AID 2316;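 active = replicate mean of 50% or more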;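 note: 0% = median vehicle wells and 100% = positive control; 100 nL library stock added to about 50 µL; numbers are from one replicate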
Active calls of the source: *; / = no result given. A portion of the library; count on the stated rates, not on these rows.

SMILES	YB-1 expr inh	Shh pathway inh	MITF inh	PD-1 reversal
C[C@H]1CN([C@@H](C)CO)C(=O)c2cccc(NS(C)(=O)=O)c2O[C@@H]1CN(C)Cc1ccc(-c2ccccc2)cc1	0.183	-2.5	1.2	1.1
Cc1ccc(S(=O)(=O)Nc2ccc3c(c2)C(=O)N([C@@H](C)CO)C[C@@H](C)[C@@H](CN(C)S(C)(=O)=O)O3)cc1	0.264	-45.2	-6.5	1.3
Clc1ccc(Sc2ccc(-c3ccccn3)s2)cc1	-0.576	21.1	-28.6	-0.5
C[C@@H]1CCCCO[C@@H](CN(C)C(=O)Nc2ccc(F)cc2)[C@@H](C)CN([C@H](C)CO)C(=O)c2cc(NC(=O)Cc3ccccc3)ccc2O1	-0.692	/	-8.8	-1.3
O=C(CSc1nc2sc3c(c2c(=O)[nH]1)CCC3)Nc1ccccc1C(F)(F)F	/	/	-3.8	2.4
C[C@@H]1CN([C@H](C)CO)C(=O)c2cc(NS(C)(=O)=O)ccc2O[C@H]1CN(C)C(=O)Nc1ccc2c(c1)OCO2	-0.129	-9.4	8.7	/
C[C@H]1CN([C@@H](C)CO)C(=O)c2cccc(NC(=O)Nc3cccc4ccccc34)c2O[C@@H]1CN(C)S(C)(=O)=O	0.48	33.8	-2.3	-0.5
Cc1ccc(-c2nc3ccccc3o2)cc1NC(=O)COc1ccccc1C	/	/	-23.6	1.1
Cc1noc(C)c1S(=O)(=O)Nc1cccc2c1O[C@H](CN(C)Cc1ccc(C(F)(F)F)cc1)[C@H](C)CN([C@@H](C)CO)C2=O	-0.0165	4.9	-1.1	1.0
C=C1CCC(C)C(C)(CCC2=CC(OC)OC2=O)C/C=C\C=C\1C(=O)O (stereo not given)	-0.555	-23.6	-3.9	1.0
C[C@H]1CN([C@@H](C)CO)C(=O)c2cccc(N(C)C)c2O[C@@H]1CN(C)S(C)(=O)=O	0.0456	-40.6	-3.6	/
COc1cc(O)c(C(C)=O)c(CC(=O)O)c1	0.268	-10.5	-2.7	0.7
C=C(C(=O)O[C@H]1C/C=C(/C)C[C@H](O)[C@H]2[C@H](C)C(=O)O[C@@H]2/C=C\1C)[C@@H]1CCC(=C)[C@@H]2C[C@H](O[C@@H]3O[C@H](CO)[C@@H](O)[C@H](O)[C@H]3O)C(=C)[C@@H]2C1	0.199	12.7	13.5	-2.2
C[C@@H]1CN([C@@H](C)CO)C(=O)c2cc(NS(=O)(=O)c3cccs3)ccc2O[C@H]1CN(C)S(=O)(=O)c1cccs1	-0.404	/	-11.3	0.2
COc1ccc2nc(SCC(=O)NC3CCCC3)[nH]c2c1	/	/	0.9	0.8
CNC[C@H]1OCCCC[C@@H](C)Oc2ccc(NC(=O)c3ccncc3)cc2C(=O)N([C@H](C)CO)C[C@@H]1C	0.0303	/	-5.8	-0.4
C[C@@H]1CN([C@H](C)CO)C(=O)c2cccc(NS(=O)(=O)c3cn(C)cn3)c2O[C@H]1CN(C)S(=O)(=O)c1cn(C)cn1	-0.441	-25.1	0.5	0.5
Cc1ccc(S(=O)(=O)N(C)C[C@@H]2Oc3ccc(NS(=O)(=O)c4ccc(F)cc4)cc3CC(=O)N([C@H](C)CO)C[C@@H]2C)cc1	-0.355	24.1	-3.4	/
C[C@@H]1CN([C@H](C)CO)C(=O)Cc2cc(NC(=O)c3ccncc3)ccc2O[C@H]1CN(C)C(=O)NC1CCCCC1	-0.317	-3.7	-10.0	0.4
C[C@@H]1CN([C@H](C)CO)C(=O)c2cccc(N(C)C)c2O[C@@H]1CN(C)C(=O)Nc1ccc2c(c1)OCO2	0.655	0.6	6.1	1.1
O=C(CSc1nnc(-c2ccncc2)n1-c1ccccc1)Nc1ccc(Br)cc1C(F)(F)F	/	/	9.5	0.9
C[C@@H]1CN([C@H](C)CO)C(=O)Cc2cc(NC(=O)Nc3ccc(C(F)(F)F)cc3)ccc2O[C@H]1CN(C)Cc1ccc2c(c1)OCO2	-0.239	/	-17.9	/
N#Cc1c(SCC(=O)Nc2c(Cl)cccc2Cl)nc2c(c1-c1cccnc1)CCC2	/	/	-3.5	-3.8
Cc1noc(C)c1NC(=O)N(C)C[C@@H]1Oc2c(NS(C)(=O)=O)cccc2C(=O)N([C@H](C)CO)C[C@H]1C	0.0405	-18.3	0.7	/
COc1ccc(NC(=O)COc2cc(C)c(Br)cc2C)c([N+](=O)[O-])c1	/	/	-6.7	1.4
C[C@@H]1CN([C@H](C)CO)C(=O)Cc2cc(NC(=O)Cc3ccccc3)ccc2O[C@@H]1CN(C)C(=O)NC1CCCCC1	0.107	-10.5	5.0	-0.7
C[C@H]1CN([C@@H](C)CO)C(=O)c2cccc(NC(=O)Nc3ccc4c(c3)OCO4)c2O[C@@H]1CN(C)Cc1ccncc1	-0.197	-48.4	-12.6	1.8
CS(=O)(=O)N(CC(=O)Nc1c(F)cccc1F)c1cccc([N+](=O)[O-])c1	/	/	-7.8	3.0
Cc1ccc(S(=O)(=O)Nc2ccc3c(c2)CC(=O)N([C@@H](C)CO)C[C@H](C)[C@@H](CN(C)C(=O)NC(C)C)O3)cc1	-0.329	21.8	-22.5	2.3
CNC[C@@H]1Oc2ccc(NS(=O)(=O)c3cccs3)cc2C(=O)N([C@H](C)CO)C[C@H]1C	-1.12	/	4.0	2.0
C[C@H]1CN([C@@H](C)CO)C(=O)c2cc(NS(=O)(=O)c3ccccc3)ccc2O[C@@H]1CN(C)Cc1ccncc1	-0.727	/	-6.7	/
Cn1nc2c3ccccc3n(Cc3ccccc3)c2nc1=S	0.0916	-3.1	-14.2	-0.6
c1ccc(OCCSc2nnc3n(-c4ccccc4)c4ccccc4n23)cc1	/	/	-13.5	-0.4
Cc1c(Cl)cccc1NC(=O)COc1ccc(C(=O)Nc2cccc(C(F)(F)F)c2)cc1	/	/	32.9	-1.5
COc1ccc(S(=O)(=O)Nc2cccc3c2O[C@H](CN(C)S(=O)(=O)c2ccc(F)cc2)[C@H](C)CN([C@@H](C)CO)C3=O)cc1	-0.269	0.1	-3.9	/
CCc1ccc(OCC(=O)Nc2cccc(-c3nc4cc(Cl)ccc4o3)c2C)cc1	/	/	53.9	0.0
C[C@@H]1CN([C@@H](C)CO)C(=O)c2cc(NC(=O)C3CCCCC3)ccc2O[C@H]1CN(C)S(=O)(=O)c1ccc(F)cc1	0.137	/	-10.0	0.7
C[C@H]1CN([C@@H](C)CO)C(=O)c2cccc(NS(=O)(=O)c3cccs3)c2O[C@H]1CN(C)S(=O)(=O)c1ccc(F)cc1	-0.347	16.4	-2.5	2.1
C[C@H]1CN([C@@H](C)CO)C(=O)c2cccc(NC(=O)c3cnccn3)c2O[C@H]1CN(C)Cc1ccc(-c2ccccc2)cc1	0.46	47.4	-31.2	-1.9
O=C1NCCN1CCNC(=S)Nc1cc(C(F)(F)F)cc(C(F)(F)F)c1	-0.334	-29.1	-22.5	-0.2
COc1ccc(S(=O)(=O)Nc2cccc3c2O[C@@H](CN(C)S(=O)(=O)c2cccs2)[C@@H](C)CN([C@@H](C)CO)C3=O)cc1	0.184	18.3	-3.5	-0.8
CC(C)NC(=O)N(C)C[C@H]1Oc2ccc(NC(=O)C3CCCCC3)cc2C(=O)N([C@@H](C)CO)C[C@@H]1C	0.106	/	-7.9	/
c1ccc(OCCCc2nc(-c3ccccn3)no2)cc1	/	/	-80.6	2.0
Cc1noc(C)c1S(=O)(=O)Nc1ccc2c(c1)C(=O)N([C@H](C)CO)C[C@H](C)[C@H](CN(C)S(C)(=O)=O)OCCCC[C@@H](C)O2	-0.263	-25.5	-9.5	-0.7
C[C@@H]1CCCCO[C@H](CN(C)C(=O)Nc2cccc3ccccc23)[C@@H](C)CN([C@H](C)CO)C(=O)c2cc(NS(=O)(=O)c3ccccc3)ccc2O1	-0.234	/	15.0	0.0
Cc1noc(C)c1NC(=O)N(C)C[C@H]1Oc2c(NC(=O)Nc3ccc(C(F)(F)F)cc3)cccc2C(=O)N([C@@H](C)CO)C[C@@H]1C	-0.0335	-23.5	2.9	1.7
O=C(Nc1cccs1)N1CCN(C(=O)C2CCCO2)CC1 (stereo not given)	-1.07	/	-16.2	0.0
CCN(CC(=O)Nc1cccc(OC)c1)S(=O)(=O)c1ccc2ccccc2c1	/	/	-2.1	-1.0
CCCN(CCC)CCc1cccc2c1CC(=O)N2	0.305	-20.7	-11.9	/
CNC[C@@H]1OCCCC[C@@H](C)Oc2ccc(NC(=O)Nc3c(C)noc3C)cc2C(=O)N([C@H](C)CO)C[C@@H]1C	-0.375	-16.9	-7.7	0.1
C[C@H](CO)N1C[C@H](C)[C@@H](CN(C)C(=O)Nc2cccc3ccccc23)Oc2ccc(NS(=O)(=O)c3ccc(F)cc3)cc2C1=O	-0.58	/	-13.5	-2.8
COc1ccc(NC(=O)N(C)C[C@@H]2Oc3c(NS(=O)(=O)c4cccs4)cccc3C(=O)N([C@@H](C)CO)C[C@H]2C)cc1	0.0244	-12.8	-4.9	0.3
COC(=O)c1c(N)n(CCc2ccccc2)c2nc3ccccc3nc12	-0.0933	-28.4	-13.1	-1.3
C[C@H](CO)N1C[C@H](C)[C@@H](CN(C)Cc2ccccc2)Oc2c(NS(=O)(=O)c3cn(C)cn3)cccc2C1=O	-0.195	-24.8	-3.2	/
C[C@@H]1CN([C@@H](C)CO)C(=O)c2cc(NS(=O)(=O)c3ccc(F)cc3)ccc2O[C@@H]1CN(C)C(=O)NC1CCCCC1	0.142	-15.2	1.1	-2.0
COc1ccc(CN2C(=O)c3cccc4cccc(c34)C2=O)cc1S(=O)(=O)N1CCCCCC1	/	/	36.7	-1.3
COc1ccc(NC(=O)Nc2ccc3c(c2)CC(=O)N([C@H](C)CO)C[C@H](C)[C@H](CN(C)C)O3)cc1	-0.158	2.5	-4.8	2.0
C[C@@H]1CN([C@H](C)CO)C(=O)Cc2cc(NS(C)(=O)=O)ccc2O[C@H]1CN(C)Cc1ccncc1	0.0134	-15.9	-12.1	1.6
C[C@H]1CN([C@@H](C)CO)C(=O)Cc2cc(NS(=O)(=O)c3cn(C)cn3)ccc2O[C@@H]1CN(C)S(C)(=O)=O	-0.162	/	-0.9	0.3
Oc1c(Cl)cc(Cl)cc1C1Nc2cc(C(F)(F)F)ccc2-n2cccc21 (stereo not given)	-0.0594	33.8	43.8	-5.2

Two entries drawn at random from those above:
SMILES	YB-1 expr inh	Shh pathway inh	MITF inh	PD-1 reversal
COC(=O)c1c(N)n(CCc2ccccc2)c2nc3ccccc3nc12	-0.0933	-28.4	-13.1	-1.3
C[C@H](CO)N1C[C@H](C)[C@@H](CN(C)C(=O)Nc2cccc3ccccc23)Oc2ccc(NS(=O)(=O)c3ccc(F)cc3)cc2C1=O	-0.58	/	-13.5	-2.8

Entries shown so far containing bromine:
SMILES	YB-1 expr inh	Shh pathway inh	MITF inh	PD-1 reversal
O=C(CSc1nnc(-c2ccncc2)n1-c1ccccc1)Nc1ccc(Br)cc1C(F)(F)F	/	/	9.5	0.9
COc1ccc(NC(=O)COc2cc(C)c(Br)cc2C)c([N+](=O)[O-])c1	/	/	-6.7	1.4

Next section
SMILES	YB-1 expr inh	Shh pathway inh	MITF inh	PD-1 reversal
CCC[C@@H](O)[C@H](O)[C@@H]1CC(OC)=CC(=O)O1	-0.129	-19.0	-0.7	0.8
C=C1CC[C@@H]2[C@](C)(CO)[C@H](O)CC[C@@]2(C)[C@@H]1CC(O)C1=CCOC1=O (stereo not given in full)	-0.312	28.0	-21.8	-5.6
C[C@@H]1CCCCO[C@@H](CN(C)C(=O)Cc2ccccc2)[C@@H](C)CN([C@H](C)CO)C(=O)c2cc(NC(=O)c3ccncc3)ccc2O1	-0.132	-2.3	1.8	-0.7
C[C@@H]1CN([C@H](C)CO)C(=O)c2cc(NC(=O)Nc3ccccc3)ccc2O[C@H]1CN(C)C	0.299	/	-0.7	/
C[C@@H]1CN([C@@H](C)CO)C(=O)c2cccc(NC(=O)Nc3ccc(F)cc3)c2O[C@H]1CN(C)S(=O)(=O)c1ccc(Cl)cc1	-0.268	4.4	8.5	/
CCOC(=O)c1c(CN2CCCCC2)n(-c2ccccc2)c2cc(Br)c(OC)cc12	0.219	-8.2	2.9	-1.4
CSc1cccc(NC(=O)CNS(=O)(=O)c2c(C)cc(C)cc2C)c1	/	/	-7.1	-2.7
COc1ccccc1C(=O)NCCCn1cc(Br)c(C)n1	/	/	-4.9	0.9
CC(C)NC(=O)N(C)C[C@H]1Oc2c(cccc2N(C)C)C(=O)N([C@@H](C)CO)C[C@@H]1C	-0.295	0.5	9.2	0.6
Cc1ccc(S(=O)(=O)Nc2ccc3c(c2)CC(=O)N([C@@H](C)CO)C[C@H](C)[C@@H](CN(C)Cc2ccccc2)O3)cc1	0.158	-5.7	-2.2	0.4
COc1ccc(NC(=O)N(C)C[C@H]2Oc3ccc(NC(=O)C4CC4)cc3C(=O)N([C@@H](C)CO)C[C@H]2C)cc1	0.2	-62.4	0.5	/
COc1ccc(CN(C)C[C@@H]2Oc3ccc(NS(=O)(=O)c4ccc(Cl)cc4)cc3C(=O)N([C@@H](C)CO)C[C@H]2C)cc1	-0.224	7.5	-0.4	0.2
N#CC1=C(N)OC(C2CC2)=C(C#N)C1c1ccccc1Cl (stereo not given)	0.513	21.5	-24.1	-5.8
O=C(COc1cc(O)c2c(=O)cc(-c3ccccc3)oc2c1)c1cccc([N+](=O)[O-])c1	/	/	-27.5	-0.6
